Screening data as filed in PubChem.
Ecoli growth: E. coli growth inhibition, primary screen, OD600 | 0.21% of 330,000 active | OD600 absorbance (concentration not given with the values) | Escherichia coli growth, 23 h; hits give low values;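 active = OD600 absorbance below the run mean of sample wells minus 3.6 SD, in any replicate, cut at about 0.56 in these data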;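 also: stock transfer was 300 nL into about 60 µL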
ALR inh: inhibitors of human ALR sulfhydryl oxidase, primary screen, biochemical, H2O2 detection, HRP-luminol luminescence, single point | FAD-linked sulfhydryl oxidase ALR (Homo sapiens), P55789 | purified ALR, DTT oxidation | inhibition, % (concentration not given with the values) | 3.8% of 290,000 active;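 active = mean and each replicate at 75% or more; inconclusive = only one of the two met; inactive = neither met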;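 also: stock transfer was 7.5 nL into about 7.5 µL; 0% = neutral wells and 100% = wells with inactivated enzyme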
UCH37 inh: inhibitors of human UCH37 deubiquitinase, primary screen, biochemical, Ub-AMC cleavage, fluorescence; purified proteasome/UCH37; inhibition, % (concentration not given with the values); 0.33% of 330,000 active; AID 588478, 2011;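 active = mean of two replicates above 20%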;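 also: 0% = compound-free wells with enzyme and 100% = wells lacking proteasome; stock transfer was 100 nL into about 20 µL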
Target sequence (Q9Y5K5 whole entry, looked up): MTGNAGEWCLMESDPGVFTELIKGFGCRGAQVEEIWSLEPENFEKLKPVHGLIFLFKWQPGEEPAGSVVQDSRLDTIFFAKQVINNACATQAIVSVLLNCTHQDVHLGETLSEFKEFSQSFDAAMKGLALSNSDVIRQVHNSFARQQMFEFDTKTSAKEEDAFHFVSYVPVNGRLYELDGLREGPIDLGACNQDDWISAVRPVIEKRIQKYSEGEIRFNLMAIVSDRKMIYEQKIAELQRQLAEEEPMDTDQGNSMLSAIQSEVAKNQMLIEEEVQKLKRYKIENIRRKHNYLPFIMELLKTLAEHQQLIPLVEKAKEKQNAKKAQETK
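Material: Human UCH37 enzyme supplied as purified proteasome complex | Schedule: 30 min preincubation with enzyme, 25 min cleavage at room temperature | Detection: AMC fluorescence 355/460 nm | Measure: % inhibition of Ub-AMC cleavage fluorescence | Controls: Wells without proteasome as full block, compound-free enzyme plus substrate as uninhibited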
LANA-H2B inh: blockers of LANA interaction with H2A/H2B – biochemical, FP readout, HTS, primary screen | Protein LANA1 (Human herpesvirus 8 type P (isolate GK18)), Q9QR71 | cell-free LANA-H2A/H2B peptide, fluorescence polarization | inhibition, % (no concentration beside the values) | 0.6% of 320,000 active | AID 2629, 2010; in the data active = inhibition mostly above about 10%, no sharp cut-off; inactive = mostly below about 6.7%;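 also: stock transfer was 7.5 nL into about 10 µL; 0% = median of vehicle wells and 100% = median of positive control wells; one replicate is shown; the record names a cut of 25% in any replicate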
HNF4A DNA FP: change in binding of human HNF4A to DNA, primary screen, biochemical, fluorescence polarization, FITC-DNA; Hepatocyte nuclear factor 4-alpha (Homo sapiens), P41235; 1 h; activity change, % at 10 µM; 0.3% of 360,000 active; in the data active = activity change above about 30%, passing the limit was not always enough;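 also: controls were the assay level and a saturating level of protein; the project sought stronger binding though the title names inhibitors; some compounds called inactive have numbers as strong as hits; positive values seem to mean higher polarization but the record does not say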
Beta2AR agonist: beta2AR agonists driving receptor internalization, primary screen, cell-based, FAP fluorogen, flow cytometry; Beta-2 adrenergic receptor (Homo sapiens), P07550; Am2.2-beta2AR cells; reference of the scale not given here; response, % (concentration not given with the values); 0.43% of 340,000 active;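 active = response above a set limit, near 3 SD of response in nonfluorescent compounds, cut at about 42% in these data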;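 also: stock transfer was 100 nL into about 11 µL; a reference agonist was the positive control; negative values mostly stem from fluorescent compounds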
Target sequence (P07550 whole entry, looked up): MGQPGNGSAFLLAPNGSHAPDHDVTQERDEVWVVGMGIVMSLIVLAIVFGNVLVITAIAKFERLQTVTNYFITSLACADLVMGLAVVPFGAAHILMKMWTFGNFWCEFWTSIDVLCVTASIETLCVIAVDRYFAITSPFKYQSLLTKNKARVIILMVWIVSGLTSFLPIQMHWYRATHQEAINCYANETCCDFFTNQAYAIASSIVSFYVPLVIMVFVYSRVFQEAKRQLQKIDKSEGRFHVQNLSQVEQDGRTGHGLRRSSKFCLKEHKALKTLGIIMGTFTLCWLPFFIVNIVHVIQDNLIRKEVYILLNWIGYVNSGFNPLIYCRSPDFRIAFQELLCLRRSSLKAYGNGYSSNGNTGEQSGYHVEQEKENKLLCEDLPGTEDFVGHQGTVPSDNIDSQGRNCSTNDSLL
FGF22 binding: binders of human FGF22 protein, primary screen, FGF22 synaptogenesis inhibitor project, biophysical, thermal shift, single point; Fibroblast growth factor 22 (Homo sapiens), Q9HCT0; recombinant FGF22 thermal shift, SYPRO orange fluorescence; percent of sucrose octasulfate shift, DMSO zero; calls only at 9.99 µM; 1.5% of 340,000 active; AID 651658, 2012;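 active = melting point raised past a set limit in the mean and every replicate; inconclusive = no clear call; three in four hits are not shown here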
Target sequence (Q9HCT0 whole entry, looked up): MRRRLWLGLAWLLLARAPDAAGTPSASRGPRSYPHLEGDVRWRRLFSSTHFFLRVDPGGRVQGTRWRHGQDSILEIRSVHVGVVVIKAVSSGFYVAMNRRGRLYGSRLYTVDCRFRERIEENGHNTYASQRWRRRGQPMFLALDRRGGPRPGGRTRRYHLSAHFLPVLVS
* = called active by the depositor; i = inactive; ? = inconclusive; / = no result given. These rows are one share of the data; the hit share may differ from the screen's.

smiles	Ecoli growth	ALR inh	UCH37 inh	LANA-H2B inh	HNF4A DNA FP	Beta2AR agonist	FGF22 binding
CCOC(=O)N1CCN(C(=O)/C=C/c2cccc([N+](=O)[O-])c2)CC1	0.701	0.0	4.0	1.0	-1.0	-18.5	i
COc1ccc(-n2ccnc2)cc1	0.617	26.0	0.9	2.8	-0.3	-8.5	i
CCOC(=O)CSC1=C(C#N)C(c2ccccc2F)C(C(C)=O)=C(C)N1 (stereo unspecified)	0.706	-10.7	-10.8	-7.4	-0.2	36.4	/
O=C(CC1C(=O)NCCN1Cc1ccccc1C(F)(F)F)NC1CCCCC1 (stereo unspecified)	0.676	-40.2	-0.5	2.6	-0.8	-1.0	i
CCOC(=O)/C=C/C(=O)Nc1ccc(S(=O)(=O)N(C)c2ccccc2)cc1	0.705	35.4	1.7	-1.0	-4.9	7.1	i
Cc1cc(C(F)(F)F)nc(NCc2ccc(F)cc2)n1	0.659	0.4	3.2	-1.6	-3.9	-17.3	/
Cc1ccc(-n2ncc(C#N)c2/N=C/N2CCOCC2)cc1	/	/	/	-5.9	-2.2	-3.4	/
Cc1ccc(C)c(N2CCN(S(=O)(=O)c3ccc4c(c3)NC(=O)CC(=O)N4)CC2)c1	0.761	12.5	2.4	-0.9	0.7	0.6	i
CC[C@]12c3[nH]c4cc(-c5ccco5)ccc4c3CCN1C(=O)[C@@H](CC(=O)NC/C=C(\C)CCC=C(C)C)C[C@@H]2C(=O)N1CCN(C(=O)C2CC2)CC1	0.721	/	-22.6	/	1.2	3.0	i
COc1ccc(CCNC(=O)C(=O)c2c(C)n(C)c3ccccc23)cc1OC	0.689	-8.0	8.6	0.3	-0.2	8.4	i
Cc1ccc(C2CC(=O)N3CN(c4ccc(Br)cc4)CSC3=C2C#N)o1 (stereo unspecified)	0.699	4.5	2.8	9.2	-10.7	-1.3	/
Cc1ccc(NC(=O)CCNS(=O)(=O)c2ccccc2)cc1S(=O)(=O)N1CCOCC1	0.671	-0.7	3.5	-1.9	3.3	-3.4	i
O=C(NC1CCCC1)C(c1ccncc1)N(C(=O)c1csnn1)c1ccccc1 (stereo unspecified)	0.666	1.5	0.4	1.1	3.8	-0.5	i
CC(=O)c1cccc(NC(=O)CSc2ccc(-c3sc(C)nc3C)nn2)c1	0.707	1.5	4.6	-0.4	4.3	6.8	i
O=C(C1CCCN(CCCc2ccccc2)C1)N1CCCCCC1 (stereo unspecified)	0.662	-1.5	1.8	-2.1	1.1	-13.7	i
CCN1C=C(C(=O)c2ccccc2)C(=O)CC1	0.675	/	3.9	/	0.4	-2.7	i
CN(C)S(=O)(=O)c1cccc(NC(=O)CNCc2ccccn2)c1	0.741	-3.5	-1.9	0.1	0.4	-7.2	i
O=C(Nc1ccc(Br)cc1)c1ccc(N2C(=O)C3CC=C(Cl)CC3C2=O)cc1 (stereo unspecified)	0.699	-9.8	-1.8	7.3	-1.5	-2.2	/
COC(=O)CN(c1ccccc1F)S(=O)(=O)c1ccccc1	0.711	-4.2	2.2	3.2	0.5	3.0	/
CC1(c2ccc(NC(=O)c3ccccc3F)cc2)CC1(Cl)Cl (stereo unspecified)	0.715	-19.1	5.1	-3.3	2.3	10.6	i
Cc1ccc(C(=O)c2coc3ccc(O)cc23)cc1	0.7	-19.8	2.3	4.9	1.6	8.5	i
Cc1ccccc1Nc1nc(Cl)c(C=O)s1	0.709	28.0	6.0	4.0	5.7	25.2	i
CCc1ccc2c(Cl)c(C(=O)N/N=C/c3c[nH]c4ccccc34)sc2c1	/	-1.5	/	4.9	2.3	-0.9	/
CCOc1ccc2[nH]c(=O)c(CN(Cc3ccc(F)cc3)C(=O)N3CCCC3)cc2c1	0.676	-22.5	-19.1	0.3	4.6	-15.3	/
CC(=O)N1CCN(c2ccc(NC(=S)NC(=O)c3ccc(C)c([N+](=O)[O-])c3)cc2)CC1	0.64	23.6	3.2	-6.0	-2.5	0.2	i
CC(=O)Nc1ccccc1-c1nc2ccccc2nc1OCC(=O)c1ccc2ccccc2c1	0.703	-5.4	2.1	4.7	1.0	12.8	/
Cc1cc(/C=C(\C#N)C(=O)O)c(C)n1-c1ccc(Br)cc1	0.718	37.2	14.6	-3.1	1.8	3.7	i
c1coc(CNC2C3CC4CC(C3)CC2C4)c1 (stereo unspecified)	0.66	-1.3	0.1	0.5	-1.5	6.8	/
Cc1cc(C(=O)NN=C2CCCCCC2)c(C)o1	0.724	5.6	4.5	-8.8	1.7	-4.7	i
CC(C)[C@H](CO)Nc1nc(NCc2ccc(S(N)(=O)=O)cc2)c2ncn(C(C)C)c2n1	/	-6.2	0.0	4.8	3.6	-4.0	i
Cc1cccc(NC(=O)c2ccc(C)c(S(=O)(=O)N3CCCCC3)c2)n1	0.7	-4.6	2.4	-3.4	8.0	2.1	/
COc1ccc(OC)c(CNc2ncc(-c3ccc(F)cc3)n2C)c1	0.635	/	1.1	/	0.4	2.4	i
CCC(=O)C1=C(O)C(c2cccc(Oc3ccccc3)c2)CCC1=O (stereo unspecified)	0.702	-0.7	2.5	2.5	1.1	8.4	i
COCCN(C(=S)Nc1ccc(OC)cc1)C1CCN(C(C)C)CC1	0.716	1.5	0.3	0.5	-0.5	5.1	/
CC1=C(C(N)=O)C(c2ccccc2F)NC(=O)N1 (stereo unspecified)	0.694	3.2	0.0	-0.1	0.8	3.5	/
COCCN(C(=O)Cn1nnc2ccccc21)C(C(=O)NC1CCCC1)c1cc(OC)ccc1OC (stereo unspecified)	0.718	7.6	0.6	0.3	-3.0	-1.4	/
COc1cc(O)cc2c1[C@@H]1Oc3c(ccc(O)c3CC=C(C)C)[C@@H]1CO2	0.719	20.4	4.6	2.9	3.4	12.8	i
COC(=O)CCC(C(=O)CN1C(=O)c2ccccc2C1=O)N1C(=O)c2ccccc2C1=O (stereo unspecified)	/	/	/	/	-1.2	-6.5	i
COc1ccc(/C=C(\NC(=O)c2ccccc2)C(=O)NCCC(=O)O)cc1	0.644	/	2.2	-0.8	0.8	-0.2	i
CCN(CC)S(=O)(=O)c1cc(C(=O)Nc2cc(C)on2)c(Cl)cc1Cl	0.692	69.6	1.9	1.3	-2.9	7.3	i
C/C(CC(=O)Nc1ccc2c(c1)OCO2)=N\NC(=O)c1ccccc1N	/	/	/	2.7	-8.4	-3.0	i
N#Cc1ccc(-c2ccco2)nc1SCC(=O)c1ccc(Cl)cc1	0.627	?	4.4	-2.4	16.1	-76.2	/
Cc1ccc(-n2c(=O)cc(N3CCC(C)CC3)[nH]c2=O)cc1	0.733	24.9	5.0	-4.2	-0.5	0.1	/
O=C(O)/C=C/C(=O)Nc1ccc(OCc2ccccc2)cc1	0.7	11.9	6.1	0.7	-0.8	0.4	i
Cc1ccc2c(C)[nH]c(=O)cc2c1	0.623	3.5	2.2	1.9	-2.5	-1.5	/
CCOC(=O)C1(CCc2ccccc2)CCN(C(=O)CCn2cnnn2)CC1	0.689	-9.2	4.9	-5.4	0.9	24.4	/
COc1ccc(NC(=O)CCCNC(=O)c2ccc(Cl)cc2)c(OC)c1	0.651	-0.2	0.4	1.2	1.5	2.7	i
C/C(=N/OC(=O)c1c(F)cccc1F)c1nccs1	/	2.1	/	3.3	0.2	-0.3	/
Cn1cc(CCC(=O)NCc2ccc(Cl)cc2)c2ccccc21	0.678	-2.7	4.5	3.5	-0.7	-0.3	i
CSc1nc(C)cc(OCCO)n1	0.734	-11.6	0.1	8.9	0.7	-2.6	/
C=CCn1c(SCc2ccc(OC)cc2)nnc1-c1cccnc1	0.653	-14.5	2.5	1.8	-0.1	1.1	/
Brc1cccc(Cn2c(-c3cncs3)nc3ccccc32)c1	0.716	21.8	2.7	0.2	-1.3	0.7	/
COc1ccccc1NC(=O)N(CCN1CCCC1)Cc1cc2cc(C)ccc2[nH]c1=O	0.703	-3.1	0.1	-1.0	-0.2	6.4	/
Cc1ccc(NC(=O)c2cc(S(=O)(=O)N3CCOCC3)cn2C)c(C)c1	0.678	-3.3	-1.7	-2.9	4.0	3.5	i
Cc1ccc(C)c(NC(=O)C(c2ccccc2)N2CCOCC2)c1 (stereo unspecified)	0.702	-2.6	1.5	-6.4	-0.6	-6.1	i
C=CCNc1c2c(nc3ncnn13)CC(C)CC2 (stereo unspecified)	0.67	-2.4	1.1	-4.1	1.2	-9.5	i
COc1ccc(C(=O)N(CC2CCCO2)C(C(=O)NC2CCCC2)c2ccc(C)cc2)cc1OC (stereo unspecified)	0.695	-6.7	4.7	6.2	-0.7	-3.0	/
NC(=O)NCc1ccc(Cl)cc1	0.657	-9.9	4.6	-1.0	-1.1	3.1	/
FC(F)(F)Oc1ccc(NC(=S)NCc2ccccc2)cc1	0.629	/	1.2	1.7	-0.2	-2.5	i
COc1cc(OC)c(C(=O)OCC(=O)N2CCN(S(=O)(=O)c3ccc(C)cc3C)CC2)cc1OC	0.68	/	1.5	/	-1.6	-9.6	i

(continued)
smiles	Ecoli growth	ALR inh	UCH37 inh	LANA-H2B inh	HNF4A DNA FP	Beta2AR agonist	FGF22 binding
Cc1cc(C)nc(NC(=O)CN2C(=O)c3ccccc3S2(=O)=O)n1	0.698	-12.1	3.8	-2.4	-2.6	-3.4	i
Cc1cccc(NC(=O)CN2CCN(C(=O)C3CCC3)CC2)c1C	0.684	/	1.4	-2.0	4.7	-3.0	i
COC(=O)c1cccc(NC(=O)NC(=O)c2ccccc2Cl)c1	0.715	/	2.5	0.1	0.8	9.4	i
COCCNc1ncnc2nc[nH]c12	0.72	/	4.3	-1.2	-6.5	3.1	/
Cc1ccc(CNC(=O)COC(=O)CSc2cc(C)c(Br)cc2C)cc1	0.661	/	4.3	/	-0.2	6.7	/
CCN1CCN(C(=O)C2CCN(Cc3cc(Cl)ccc3O)CC2)CC1	0.671	0.2	6.3	-6.3	2.0	7.6	i
COc1ccc(-n2c(SCC(=O)N3CCc4ccccc43)nnc2-c2c[nH]c3ccccc23)cc1	0.707	/	4.0	9.6	2.3	-3.7	i
COC(=O)c1ccc(NC(=O)c2ccc(NC(=O)C3CCCO3)cc2)cc1 (stereo unspecified)	0.676	6.6	1.6	-3.2	4.5	-2.6	i
C/C(=N\NC(=O)C1CC1)c1ccc(C(C)(C)C)cc1	/	-19.3	/	-0.7	-2.6	-4.7	i
O=C(COc1ccccc1Cl)N1CCN(c2ccccn2)CC1	0.677	-0.2	-0.3	-3.7	-1.1	-3.1	i
Cc1ccnc(Nc2nc(-c3sc(C)nc3C)cs2)c1	0.631	4.3	1.8	-1.5	-1.3	7.3	i
CC(=O)N1CC=C2C(C#N)=C(N)C(C#N)(C#N)C(CCc3ccccc3)C2C1 (stereo unspecified)	0.725	10.5	-28.1	1.5	-0.9	-4.8	/
CCCCOC(=O)/C(=C/c1cn(C)c2ccccc12)NC(=O)c1ccc(OC)cc1	0.722	-3.2	-1.4	0.5	1.3	-8.2	i
CCCCCN(C(=O)CCC(=O)OCC(=O)N1CCCCC1CC)c1c(N)n(CCCC)c(=O)[nH]c1=O (stereo unspecified)	0.716	/	4.3	/	0.3	-5.8	i
CCc1c(C)nc(N)n2c(SCC(=O)Nc3ccccc3)nnc12	0.671	-10.5	1.2	3.8	2.3	5.7	/
